Assay outcomes from PubChem BioAssay.
MITF inh – inhibitors of MITF, primary screen, MITF inhibitor project, cell-based, luminescence; TRPM1 promoter luciferase, 24 h; inhibition, % (no concentration beside the values); hit rate 0.28% among 37,000; AID 2240, 2010;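 active = most replicates at 85% or more, or half of them and the mean; inconclusive = half reach 85% but not the mean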;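 also: human melanocyte line stably carrying TRPM1 promoter luciferase reporter; 0% = vehicle wells and 100% = a positive control; the first replicate is given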
PD-1 reversal – activators reversing PD-1 mediated T-cell inhibition, primary screen, luminescence, primary human CD4 T cells, PD-L1 beads | CellTiter-Glo 96 h | activation, % (test concentration not listed) | 29,000 tested, under 10 active;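 active = replicate mean of 50% or more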;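 also: 0% = median vehicle wells and 100% = positive control; 100 nL library stock added to about 50 µL; numbers are from one replicate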
YB-1 expr inh – inhibitors of YB-1 gene expression, primary screen, cell-based, fluorescence | hit rate 0.37% among 30,000 | delta delta Cp (YB-1 minus CDIP) (no concentration beside the values) | U2OS, qRT-PCR YB-1 vs CDIP delta delta Cp, 16 h; active compounds read high; zero = DMSO, each unit about twofold;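 active = delta delta Cp rounded down to an integer at or above 3, about 3 SD of DMSO wells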;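 also: higher means less YB-1 transcript or more CDIP transcript relative to DMSO; stock transfer was 100 nL into about 100 µL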
Hedgehog inh – Hedgehog pathway signaling inhibitors, primary screen, luminescence, Shh-LIGHT2 cells, Gli-luciferase | Shh-LIGHT2 Gli-luciferase reporter, 30 h | inhibition, % (no concentration beside the values) | hit rate 2.1% among 22,000;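 active = replicate mean of 65% or more; inconclusive = mean lower but half the replicates past it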;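 also: pathway switched on by Shh-conditioned medium diluted 1 in 25 in low serum; 100 nL library stock added to about 40 µL; 0% = median of neutral wells and 100% = positive control level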
The depositor's hits bear a star; ? = inconclusive; / = not tested or not shown; & = joins results of further samples; ! = a repeat was not active. Some of the compounds tested; rates above refer to the full screens.

SMILES,MITF inh,PD-1 reversal,YB-1 expr inh,Hedgehog inh
Cc1cc(C(=O)Nc2cccc3c2O[C@H](CN(C)C(=O)Nc2ccc(F)cc2)[C@@H](C)CN([C@@H](C)CO)C3=O)n(C)n1,0,0.2,-0.29,-17
Cn1c(=O)c2c(ncn2CCCCn2cnc3c2c(=O)n(C)c(=O)n3C)n(C)c1=O,-3,0.3,-0.51,-20
Cn1c(SCC(=O)c2ccc(F)cc2)nnc1-c1ccc(NC(=O)c2ccccc2Br)cc1,-12,-0.2,/,/
C[C@@H]1CN([C@H](C)CO)C(=O)Cc2cc(NC(=O)Nc3ccccc3)ccc2O[C@@H]1CN(C)Cc1ccc(Cl)c(Cl)c1,11,-1.7,-0.05,11
C[C@H](CO)N1C[C@H](C)[C@H](CN(C)Cc2ccncc2)Oc2c(NS(=O)(=O)c3cccs3)cccc2C1=O,2,-1.5,-0.094,-44
Cn1c(/C=C/C=C/N2CCCC2)nc2ccccc2c1=O,-13,-1.5,-0.41,-3
C[C@@H]1CN([C@@H](C)CO)C(=O)c2cccc(NC(=O)CCCCCC(=O)Nc3ccccc3N)c2O[C@H]1CN(C)C(=O)NC1CCCCC1,-16,2.8,-0.41,/
C[C@H](CO)N1C[C@H](C)[C@H](CN(C)S(C)(=O)=O)Oc2c(NC(=O)c3nc4ccccc4s3)cccc2C1=O,-1,/,0.22,26
COc1ccc(NC(=O)N(C)C[C@@H]2Oc3ccc(NC(=O)Cn4cnnn4)cc3C(=O)N([C@@H](C)CO)C[C@@H]2C)cc1,3,1.0,0.043,5
Cc1ccc(S(=O)(=O)Nc2cccc3c2O[C@H](CN(C)S(=O)(=O)c2cccs2)[C@H](C)CN([C@H](C)CO)C3=O)cc1,-1,-1.3,-0.4,-64
C[C@H](CO)N1C[C@H](C)[C@H](CN(C)S(=O)(=O)c2cn(C)cn2)Oc2ccc(NC(=O)Cc3cn(C)c4ccccc34)cc2C1=O,22,-0.5,-0.74,/
Cc1noc(C)c1NC(=O)N(C)C[C@H]1Oc2ccc(NS(=O)(=O)c3cccs3)cc2C(=O)N([C@H](C)CO)C[C@@H]1C,-2,0.3,-0.034,-41
C[C@@H]1CN([C@@H](C)CO)C(=O)c2cc(NC(=O)Nc3ccccc3)ccc2O[C@H]1CN(C)C(=O)Nc1cccc2ccccc12,-1,0.0,-0.34,11
CC1=CC[C@@]2(C)CC[C@@](O)(C(C)C)[C@@H]2[C@@H](O)C1,-3,-0.1,0.17,4
C[C@H](CO)N1C[C@H](C)[C@H](CN(C)C(=O)Nc2ccc(F)cc2)Oc2ccc(NS(=O)(=O)c3cccs3)cc2CC1=O,13,0.9,0.012,-6
C[C@@H]1CN([C@@H](C)CO)C(=O)c2cccc(NS(=O)(=O)c3ccc(F)cc3)c2O[C@@H]1CN(C)C,0,1.5,-0.31,-28
C[C@@H]1CN([C@@H](C)CO)C(=O)c2cccc(NC(=O)c3ccc(-c4nccs4)cc3)c2O[C@@H]1CN(C)CC1CCCCC1,1,-1.5,0.087,-49
CC1CCc2c(sc(NC(=S)NC(=O)c3ccc(-c4ccc(Cl)cc4)o3)c2C(N)=O)C1 (stereo not drawn),-33,3.5,/,/
C[C@@H]1CN([C@@H](C)CO)C(=O)c2cc(NC(=O)NC3CCCCC3)ccc2O[C@@H]1CN(C)Cc1ccccc1,-10,0.0,0.0052,?
CCN(CC(N)=O)S(=O)(=O)c1ccc(OC)cc1,-27,2.8,/,/
CC(C)NC(=O)N(C)C[C@H]1Oc2ccc(NS(C)(=O)=O)cc2C(=O)N([C@H](C)CO)C[C@@H]1C,-4,2.1,-0.07,/
C[C@H](CO)N1C[C@H](C)[C@H](CN(C)Cc2ccc(C(=O)Nc3ccccc3N)cc2)Oc2ccc(NS(=O)(=O)c3ccccc3)cc2C1=O,-5,-1.1,-0.19,/
C[C@@H]1CN([C@@H](C)CO)C(=O)c2cc(NS(=O)(=O)c3cn(C)cn3)ccc2O[C@H]1CN(C)C(=O)Nc1ccc(C(F)(F)F)cc1,-8,0.5,-0.023,-11
COc1ccc(S(=O)(=O)Nc2cccc3c2O[C@@H](CN(C)C(=O)Nc2ccccc2)[C@H](C)CN([C@@H](C)CO)C3=O)cc1,-2,3.7,-0.54,-73
C[C@H]1CN([C@@H](C)CO)C(=O)c2cc(NC(=O)Nc3ccc(F)cc3)ccc2O[C@@H]1CN(C)Cc1ccccc1,-2,0.6,0.0093,-11
NS(=O)(=O)c1cc2c(cc1Cl)NC(C1CC3C=CC1C3)NS2(=O)=O (stereo not drawn),-11,1.9,-0.62,-57
C[C@@H]1CN([C@@H](C)CO)C(=O)c2cccc(NC(=O)Nc3ccc(C(F)(F)F)cc3)c2O[C@H]1CN(C)Cc1ccc(C(=O)Nc2ccccc2N)cc1,30,-4.5,-0.21,/
C[C@H](CO)N1C[C@H](C)[C@H](CN(C)C(=O)Nc2ccc(F)cc2)Oc2c(NC(=O)c3ccncc3)cccc2C1=O,1,0.0,-0.84,-13
C[C@@H]1CN([C@@H](C)CO)C(=O)c2cc(NC(=O)Cc3ccccc3)ccc2O[C@H]1CN(C)Cc1ccc(C(=O)Nc2ccccc2N)cc1,-12,-0.6,-0.14,/
O=C1C(=O)N(CCN2CCOCC2)C(c2ccncc2)C1C(=O)c1cc2ccccc2o1 (stereo not drawn),11,1.7,/,/

Overlap with the part before: 3 compounds, then new ones.
SMILES,MITF inh,PD-1 reversal,YB-1 expr inh,Hedgehog inh
C[C@H](CO)N1C[C@H](C)[C@H](CN(C)C(=O)Nc2ccc(F)cc2)Oc2c(NC(=O)c3ccncc3)cccc2C1=O,1,0.0,-0.84,-13
C[C@@H]1CN([C@@H](C)CO)C(=O)c2cc(NC(=O)Cc3ccccc3)ccc2O[C@H]1CN(C)Cc1ccc(C(=O)Nc2ccccc2N)cc1,-12,-0.6,-0.14,/
O=C1C(=O)N(CCN2CCOCC2)C(c2ccncc2)C1C(=O)c1cc2ccccc2o1 (stereo not drawn),11,1.7,/,/
COc1ccc(OC)c(S(=O)(=O)Nc2cc(OC)c(Cl)cc2OC)c1,-5,1.2,/,/
C[C@@H]1CN([C@@H](C)CO)C(=O)Cc2cc(NC(=O)C3CCCCC3)ccc2O[C@@H]1CN(C)S(C)(=O)=O,-18,/,0.037,/
C=C1C(=O)O[C@H]2[C@H]1[C@@H](OC(=O)/C(C)=C\C)C(OC(C)=O)/C(C(=O)OC)=C\CC[C@@]1(C)O[C@H]21 (stereo partly drawn),53,-13,2.2,-72
CCOC(=O)c1ccc(NC(=O)C2C3CCC(C3=C(C)C)C2C(=O)O)cc1 (stereo not drawn),3,0.2,/,/
Cc1cc(C(=O)Nc2cccc3c2O[C@H](CN(C)C(=O)Nc2ccc(C(F)(F)F)cc2)[C@H](C)CN([C@@H](C)CO)C3=O)n(C)n1,-10,/,-0.14,0
C[C@@H]1CN([C@@H](C)CO)C(=O)c2cccc(NC(=O)Nc3ccc4c(c3)OCO4)c2O[C@@H]1CN(C)C(=O)Nc1cccc2ccccc12,-17,/,0.12,4
CSc1c(CC(=O)NCCc2ccccc2)n(C)c2ccccc12,24,0.2,-0.21,16
Cc1noc(C)c1NC(=O)Nc1ccc2c(c1)CC(=O)N([C@H](C)CO)C[C@@H](C)[C@H](CN(C)C)O2,17,/,0.097,-20
Cc1ccc(Oc2ncccc2NC(=O)C(=S)NCc2ccccc2)c2c1CCC2,7,0.5,0.055,41
Nc1cc(=O)[nH]c(SCC(=O)Nc2ccc(Br)cc2Cl)n1,11,0.2,/,/
CN1CCN(CCCN2c3ccccc3Sc3ccc(Cl)cc32)CC1,4&-4,/,-0.14&0.08,75*!
CCC(C)(C)NC(=S)Nc1cccc(OC)c1,-9,0.2,-0.22,-9
COc1ccccc1NC(=O)CSc1n[nH]c(-c2ccncc2)n1,16,2.3,/,/
C[C@H](CO)N1C[C@H](C)[C@H](CN(C)Cc2ccccc2)Oc2ccc(NS(=O)(=O)c3cccs3)cc2C1=O,5,1.7,0.27,4
COc1ccc(CN(C)C[C@H]2Oc3c(NC(=O)Nc4ccc(C(F)(F)F)cc4)cccc3C(=O)N([C@H](C)CO)C[C@@H]2C)cc1,25,-6.1,-0.57,-89
Cc1ccc(S(=O)(=O)Nc2ccc3c(c2)C(=O)N([C@H](C)CO)C[C@@H](C)[C@H](CN(C)C(=O)NC2CCCCC2)O3)cc1,3,-0.1,0.18,-22
CC(=O)N/C(=C\c1ccccc1)C(=O)Nc1cccc(C#N)c1,2,-0.7,-0.45,25
C[C@H]1CN([C@@H](C)CO)C(=O)Cc2cc(NS(=O)(=O)c3ccccc3)ccc2O[C@@H]1CN(C)S(=O)(=O)c1cn(C)cn1,6,/,-0.04,13
Cc1ccc(S(=O)(=O)N(C)C[C@@H]2Oc3c(NS(=O)(=O)c4ccc(F)cc4)cccc3C(=O)N([C@@H](C)CO)C[C@@H]2C)cc1,7,0.6,-0.1,18
COc1ccc(NC(=O)N(C)C[C@H]2Oc3ccc(NC(=O)C4CC4)cc3CC(=O)N([C@@H](C)CO)C[C@H]2C)cc1,-1,/,-0.11,-19
O=C(NCc1cccnc1)c1cc2cc(Cl)ccc2oc1=O,7,0.6,/,/
Brc1ccc(C2=Nn3c(Cn4nnc5ccccc54)nnc3SC2)cc1,-14,0.0,0.31,30
COc1ccc(NC(=O)Nc2ccc3c(c2)CC(=O)N([C@@H](C)CO)C[C@@H](C)[C@@H](CN(C)Cc2ccc(Oc4ccccc4)cc2)O3)cc1,14,/,0.0029,28
S=c1[nH]n(-c2ccc(Cl)cc2)c(=S)s1,2,1.1,5*,-20
C[C@@H]1CN([C@H](C)CO)C(=O)Cc2cc(NC(=O)C3CC3)ccc2O[C@@H]1CN(C)C(=O)NC1CCCCC1,-6,1.1,0.076,-2
Cc1ccc2oc(-c3cccc(NC(=O)COc4ccccc4C)c3C)nc2c1,-7,-0.6,/,/
C[C@@H]1CN([C@@H](C)CO)C(=O)c2cc(NC(=O)Nc3ccc(C(F)(F)F)cc3)ccc2O[C@H]1CN(C)CC1CCCCC1,-14,-5.9,-0.028,26
C[C@@H]1CCCCO[C@H](CN(C)Cc2ccc(Cl)c(Cl)c2)[C@@H](C)CN([C@H](C)CO)C(=O)c2cc(NC(=O)Nc3ccc4c(c3)OCO4)ccc2O1,22,/,-0.21,-15
CC1CCN(CC(=O)Nc2sc3c(c2C(=O)Nc2ccccc2)CCCC3)CC1,5,2.1,/,/
Cc1cc(Cl)ccc1OCC(=O)Nc1ccc(Br)cc1C(=O)O,30,0.4,/,/

One compound at a time, from the list above:
Listed for `Cn1c(=O)c2c(ncn2CCCCn2cnc3c2c(=O)n(C)c(=O)n3C)n(C)c1=O` → MITF inh: -3; PD-1 reversal: 0.3; YB-1 expr inh: -0.51; Hedgehog inh: -20
Listed for `CC(=O)N/C(=C\c1ccccc1)C(=O)Nc1cccc(C#N)c1` → MITF inh: 2; PD-1 reversal: -0.7; YB-1 expr inh: -0.45; Hedgehog inh: 25

Going on with the list.
| smiles | MITF inh | PD-1 reversal | YB-1 expr inh | Hedgehog inh |
| --- | --- | --- | --- | --- |
| C[C@H](CO)N1C[C@H](C)[C@H](CN(C)S(=O)(=O)c2ccc(F)cc2)Oc2ccc(NC(=O)Cc3ccccc3)cc2C1=O | 2 | -2.3 | -0.14 | / |
| Cc1ccc(SC(C)C(=O)c2ccc(C)c(Cl)c2)cc1 (stereo not drawn) | 0 | 2.2 | 0.039 | -36 |
| C[C@@H]1CCCCO[C@H](CN(C)Cc2ccc3c(c2)OCO3)[C@@H](C)CN([C@H](C)CO)C(=O)c2cc(NC(=O)Nc3ccccc3)ccc2O1 | 0 | -2.4 | 0.17 | 1 |
| COC(=O)c1cc(NC(=O)CN(c2cc(C)cc(C)c2)S(C)(=O)=O)ccc1Cl | 26 | -1.1 | / | / |
| Cc1ccc(S(=O)(=O)Nc2ccc3c(c2)C(=O)N([C@@H](C)CO)C[C@@H](C)[C@@H](CN(C)C(=O)Nc2ccc(C(F)(F)F)cc2)O3)cc1 | 12 | -3.4 | -0.032 | -12 |
| CC(C)NC(=O)Nc1ccc2c(c1)CC(=O)N([C@@H](C)CO)C[C@H](C)[C@H](CN(C)CC1CC1)O2 | 1 | -0.2 | -0.44 | / |
| CCn1c2ccc(Cl)cc2c2cc(Cl)ccc21 | -8 | -0.7 | 0.018 | 19 |
| Cc1noc(C)c1NC(=O)Nc1ccc2c(c1)C(=O)N([C@@H](C)CO)C[C@H](C)[C@H](CN(C)S(=O)(=O)c1ccc(Cl)cc1)O2 | 2 | 0.5 | -0.78 | -26 |
| C[C@H]1CN([C@@H](C)CO)C(=O)c2cc(NC(=O)C3CC3)ccc2O[C@@H]1CN(C)C(=O)Nc1ccc2c(c1)OCO2 | -12 | 2.7 | 0.45 | / |
